Screens deposited in PubChem by several laboratories.
RecA splice inh: Mtb RecA intein splicing inhibition; P9WHJ3; cell-free RecA intein splicing, fluorescence; inhibition, %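 (about 9 µM by stock and volumes)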; actives 0.75% (n = 290,000); in the data active means inhibition above about 30%; inconclusive means no clear call, values can overlap the other calls;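 further: 0% = vehicle wells and 100% = reference inhibitor control wells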
Target sequence (P9WHJ3 whole entry, looked up, canonical isoform): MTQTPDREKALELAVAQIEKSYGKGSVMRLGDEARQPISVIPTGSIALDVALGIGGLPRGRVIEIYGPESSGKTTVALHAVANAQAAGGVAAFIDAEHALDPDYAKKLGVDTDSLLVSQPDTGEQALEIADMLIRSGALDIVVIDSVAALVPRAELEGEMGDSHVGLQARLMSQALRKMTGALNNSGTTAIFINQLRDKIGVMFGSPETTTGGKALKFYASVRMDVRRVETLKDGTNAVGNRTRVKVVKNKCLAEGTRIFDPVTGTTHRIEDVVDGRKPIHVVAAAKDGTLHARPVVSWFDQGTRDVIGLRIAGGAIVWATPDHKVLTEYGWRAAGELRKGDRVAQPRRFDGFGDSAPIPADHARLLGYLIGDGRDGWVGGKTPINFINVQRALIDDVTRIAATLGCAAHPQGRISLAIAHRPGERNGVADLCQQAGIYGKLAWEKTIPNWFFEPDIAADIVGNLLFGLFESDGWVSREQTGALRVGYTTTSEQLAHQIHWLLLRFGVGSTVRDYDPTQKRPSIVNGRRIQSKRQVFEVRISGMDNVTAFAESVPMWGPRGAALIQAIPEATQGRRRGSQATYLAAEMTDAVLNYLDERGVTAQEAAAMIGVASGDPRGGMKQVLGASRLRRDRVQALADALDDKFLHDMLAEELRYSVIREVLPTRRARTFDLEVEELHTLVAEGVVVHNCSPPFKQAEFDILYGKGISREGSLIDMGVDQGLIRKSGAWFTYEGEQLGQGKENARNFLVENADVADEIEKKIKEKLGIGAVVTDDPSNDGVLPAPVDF
Mtb bLac sens: beta-lactam sensitization of Mtb H37Rv; actives 0.27% (n = 330,000); inhibition, % at 25 µM; M. tuberculosis H37Rv growth with meropenem, percent inhibition; hits of this screen are not shown here; AID 434955;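 active means about 74% or more and at least 40 points above the plate without the antibiotic, then above 30% in a dose series; inconclusive means first-round hits that could not be retested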;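 further: growth measured after seven days incubation then overnight dye step; 0% = bacteria only wells and 100% = bacteria with antibiotic; twin plates without the antibiotic show which effects depend on it; some results filed as inactive read as strong as hits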
Mtb H37Rv: M. tuberculosis H37Rv growth inhibitors, H37Rv strain (AID 1626). M. tuberculosis H37Rv growth inhibition; higher % means a stronger effect. inhibition, % at 10 µM, or IC50 in µM where a hit was titrated. actives 0.95% (n = 220,000);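 active means confirmed in a dose series; inconclusive means inhibition above 80% but not taken into the dose series; inactive means below 80% or under 30% at every dose of the series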;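 further: bacteria incubated seven days before Alamar blue readout; 0% = bacteria only wells and 100% = bacteria with antibiotic wells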
YopH PTP inh: YopH (Yersinia) phosphatase inhibition; fluorescence Ex485/Em525; inhibition, %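 (about 10 µM by stock and volumes)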; actives 0.16% (n = 140,000); AID 898;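 active means inhibition of 50% or more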;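 further: controls were vehicle for no effect and minimum signal wells for full effect; inactives centre near -20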
Arbovirus anti: blocks arbovirus infection; arbovirus infection cell-based antiviral screen; inhibition, % at 10 µM; actives 0.37% (n = 200,000); AID 1251;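 active means inhibition from about 30%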;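 further: bluetongue infection of BSR cells; cell survival read as ATP light after 72 h; 0% = infected wells without compound and 100% = uninfected wells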
Arbovirus anti repeat: also measured in Arbovirus anti; calls as there; inhibition, %; measured here: 10K subset replicate screen; many hits read low in the repeat;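 first of two repeat runs on a subset; 0% = infected and 100% = uninfected wells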
The depositor's hits bear a star; ? = inconclusive; nt = not tested or not shown.

SMILES	RecA splice inh	Mtb bLac sens	Mtb H37Rv	YopH PTP inh	Arbovirus anti	others
O=C(NCCN1CCCCC1)c1ccc(Cl)nc1Cl	0.2	-6.7	-1.9%	nt	5.2
CC(=O)c1cccc(NC(=O)N2CCCC2C(=O)Nc2cccc(C)c2)c1 (stereo not drawn)	-1.7	-9.5	nt	-17.8	-0.6
O=C(OCc1cc2ccccc2[nH]c1=O)c1cccs1	-2.3	-2.9	-6.6%	-23.7	-2.8
O=S(=O)(Nc1nc2ccccc2nc1N1CCN(c2ccccc2F)CC1)c1ccc(Cl)cc1	nt	-19.6	-4.4%	-25.3	-38.9
O=C(NN1C(=O)C2CCCCC2C1=O)c1ccco1 (stereo not drawn)	0.1	-5.3	-1.4%	nt	nt
Cc1nc2ccc(S(=O)(=O)NCC(=O)NC(C)c3ccccc3)cc2s1 (stereo not drawn)	-0.6	-0.3	1.2%	nt	5.5
CCc1cc(=O)oc2c(C)c(OCC(=O)NCCCN3CCOCC3)ccc12	0.3	-0.2	nt	nt	nt
CC1CCCC(C)N1C(=O)COC(=O)c1ccc(O)cc1 (stereo not drawn)	-2.9	-1.6	3.7%	-3.8	12.0
Cc1ccnc(NC(=O)C2CCN(S(=O)(=O)c3ccc4ccccc4c3)CC2)c1	1.0	-5.4	nt	nt	nt
CCCc1nn2c(=O)cc(CSCC(=O)Nc3ccccc3OC)nc2s1	-2.4	-2.8	nt	nt	nt
C=CCOc1ccc(CC2C(=O)N(C)C(=O)N(C)C2=O)cc1	0.5	-1.7	4.1%	-0.7	-3.4
N=C1/C(=C\c2coc3ccccc3c2=O)C(=O)N=C2SC(c3ccncc3)=NN12	-1.2	3.7	-2.1%	nt	nt
O=C(O)COc1ccccc1/C=N/NC(=O)CSc1nnc(-c2ccc(Cl)cc2)n1C1CCCCC1	-0.1	4.6	-6.6%	nt	nt
O=C(Nc1ccc(OCC(=O)N2CCOCC2)cc1)Nc1cccc(Cl)c1	-2.5	-12.8	-2.4%	nt	9.3
Cc1cc(C)c2nc(C)cc(Nc3ccc(C(=O)N4CCOCC4)cc3)c2c1	0.8	-7.0	5.0%	nt	nt
CC1CN(C(=S)Nc2cccc([N+](=O)[O-])c2)CC(C)O1 (stereo not drawn)	-1.9	0.7	nt	nt	nt
CCC(C)NC(=O)c1cnn2c(C)c3c(nc12)CCCC3 (stereo not drawn)	-0.8	14.0	4.3%	-35.2	1.1
Cc1ccc2nc(NC(=O)c3cccs3)sc2c1	nt	2.1	10.7%	-20.1	-1.8	Arbovirus anti repeat=1.9
COc1ccc(C(=O)NN2C(=O)C3C(c4ccccc4)C=CC(c4ccccc4)C3C2=O)cc1 (stereo not drawn)	-0.5	-5.4	-10.0%	-0.5	16.0
COc1ccc(NC(=O)c2nc3ccccc3s2)cc1	4.3	14.1	7.9%	-16.2	-4.2
Cc1cccc(CN2CCC(n3nccc3NC(=O)CCCc3ccccc3)CC2)n1	-1.5	-6.8	nt	nt	nt
CCN(c1ccccc1)S(=O)(=O)c1ccc(C(=O)N2CC(C)CC(C)C2)cc1 (stereo not drawn)	2.2	-14.7	nt	nt	nt
CCCCNC(=O)c1onc(CSc2ccc(F)c(F)c2)c1C(=O)O	-1.1	nt	0.0%	-0.2	-0.3
CCCc1cc(C(=O)NCc2cccnc2)no1	-2.3	4.2	6.9%	-31.9	0.3
O=C(/C=C/c1ccccc1)NCc1cccnc1	nt	6.1	-0.6%	nt	-2.8
N#C/C(=C/c1ccc(N2CCOCC2)o1)c1nc2ccccc2[nH]1	nt	35.3	11.3%	-21.6	-18.6
CC1(c2ccccc2)NC(=O)N(CC(=O)Nc2nnc(C3CC3)s2)C1=O (stereo not drawn)	-7.3	-21.2	nt	nt	nt
CCOC(=O)c1cc(-c2cc3ccccc3o2)n[nH]1	3.9	-9.2	-1.6%	-25.3	-1.5
CNC(=O)c1c(NC(=O)c2ccco2)sc2c1CCCC2	6.5	?	nt	nt	nt
c1ccc(-c2nnc(-c3ccncc3)o2)cc1	1.3	11.1	10.6%	5.2	4.3
CCc1ccc(OCC(=O)Nc2ccc(S(=O)(=O)Nc3cc(C)on3)cc2)c(Br)c1	6.8	13.2	nt	nt	nt
CC1CN(C(=S)NC(=O)c2cccc([N+](=O)[O-])c2)CC(C)O1 (stereo not drawn)	0.2	nt	?	-16.9	1.2
COCCCNC(=S)N1CCC(NC(=O)c2ccco2)CC1	3.2	2.1	0.0%	nt	-0.3
Cc1ccc(S(=O)(=O)NCC(=O)OCC(=O)NCCc2ccccc2)cc1	-4.2	-10.0	nt	nt	nt
Cn1cc(CN2CCC(n3nccc3NC(=O)CCOc3ccccc3)CC2)cn1	-0.4	9.2	nt	nt	nt
CCc1cccc2c3c([nH]c12)C(CC)(CC(=O)O)OCC3 (stereo not drawn)	-3.9	8.2	-1.4%	-33.5	6.8
CCCCc1nc2ccccc2c(C(=O)O)c1C	0.1	8.5	-19.9%	-28.3	1.4
CC(C)(C)NC(=O)c1ccc2c(c1)N(CC(=O)N1CCN(c3ccc(F)cc3)CC1)C(=O)C(C)(C)O2	-5.1	1.3	8.1%	-43.5	-4.8
c1ccc(CNc2ccc(CNc3ncn[nH]3)cc2)cc1	-21.6	2.4	0.9%	-7.2	-5.0
O=C(NC(=S)N1CCN(c2c(Cl)cccc2[N+](=O)[O-])CC1)c1cccs1	13.9	43.5	?	-20.7	-18.7
COc1ccc(C(O)c2nccn2C)cc1 (stereo not drawn)	-1.3	-4.8	4.5%	-3.0	8.8
COc1ccc(C2=Nn3c(nnc3-c3ccco3)SC2)cc1OC	3.9	6.7	4.6%	-26.7	-3.1
Cc1cccc(N2CCN(C(=O)NCc3ccc(Cl)cc3)CC2)c1	-2.1	-4.0	-0.9%	-30.8	-20.2
COc1cc(C(=O)NCCc2ccc(F)cc2)ccc1OCC(=O)N1CCOCC1	2.0	-2.6	nt	nt	nt
COc1ccc(N2CCN(CCNC(=O)C3CCN(S(=O)(=O)c4cccs4)CC3)CC2)cc1	-2.9	-2.9	-11.7%	1.4	12.0

5 entries drawn at random from the list so far, as already listed:
SMILES	RecA splice inh	Mtb bLac sens	Mtb H37Rv	YopH PTP inh	Arbovirus anti	others
CC(=O)c1cccc(NC(=O)N2CCCC2C(=O)Nc2cccc(C)c2)c1 (stereo not drawn)	-1.7	-9.5	nt	-17.8	-0.6
O=C(Nc1ccc(OCC(=O)N2CCOCC2)cc1)Nc1cccc(Cl)c1	-2.5	-12.8	-2.4%	nt	9.3
COc1ccc(NC(=O)c2nc3ccccc3s2)cc1	4.3	14.1	7.9%	-16.2	-4.2
CCc1ccc(OCC(=O)Nc2ccc(S(=O)(=O)Nc3cc(C)on3)cc2)c(Br)c1	6.8	13.2	nt	nt	nt
COc1ccc(C(=O)NN2C(=O)C3C(c4ccccc4)C=CC(c4ccccc4)C3C2=O)cc1 (stereo not drawn)	-0.5	-5.4	-10.0%	-0.5	16.0

Continued.
SMILES	RecA splice inh	Mtb bLac sens	Mtb H37Rv	YopH PTP inh	Arbovirus anti	others
COc1c(Cl)cc(C(=O)NN)cc1Cl	8.8	-5.1	-1.4%	nt	-5.9
O=C(CNC(=O)c1ccco1)OCc1c(F)cccc1Cl	-0.4	-5.1	4.6%	-43.4	7.3
CCOC(=O)c1cc2cc(-c3c(C(=O)OCC)oc4cc(O)cc(O)c4c3=O)ccc2o1	nt	33.0	24.5%	-15.6	6.1
O=C(CNc1cc(S(=O)(=O)N2CCOCC2)ccc1N1CCCC1)NCc1ccco1	-2.2	-1.3	-10.6%	nt	19.4
COc1cccc(-n2c(-c3cccc(S(=O)(=O)N(C)C)c3)n[nH]c2=S)c1	-4.9	-13.3	-1.1%	nt	15.6
Nc1nc(SCC(=O)Nc2ccccc2C(F)(F)F)[nH]c(=O)c1-c1ccccc1	-3.1	1.8	-8.0%	nt	0.1
Cc1ccc(NC(=O)CCNS(=O)(=O)c2ccc3[nH]c(=O)oc3c2)cc1	-4.1	-1.5	nt	nt	nt
O=C(NCCN1CCOCC1)C(=O)NCC1CCCO1 (stereo not drawn)	-9.4	-2.5	2.6%	-24.3	-11.8
CS(=O)(=O)Nc1cccc(C2=NN(C(=O)c3ccc(F)cc3)C(c3cccs3)C2)c1 (stereo not drawn)	6.7	0.0	nt	nt	nt
Cc1nc(N/N=C/c2ccc(O)cc2O)cc(N2CCOCC2)n1	6.0	5.6	nt	nt	nt
C=CCN1C(=O)C2(OCCO2)c2cc(C)ccc21	1.5	-7.4	nt	nt	nt
COc1ccc(CCNC(=O)[C@@H](NC(=O)c2ccccc2F)C(C)C)cc1OC	-0.8	-10.6	3.2%	nt	10.5
CC1(C)CCCC2=C1CC1C(=O)N(c3ccccc3)C(=O)C1C2 (stereo not drawn)	-1.0	-8.4	6.4%	-39.7	-7.0
Cc1ccccc1COC[C@H](CC(C)C)N1CCN(C(=O)c2cccc(C(F)(F)F)c2)CCC1=O	3.7	-6.1	16.9%	-2.6	-14.1
CCCCN1C(=O)c2ccc(C(=O)Nc3cccc(C)c3C)cc2C1=O	-4.3	83.0	54.5%	-13.8	-1.2
Cc1ccc2[nH]c3c(=O)n(CC(=O)NCCc4ccc(Cl)cc4)ncc3c2c1	-2.2	0.9	nt	nt	nt
CCN(CC)S(=O)(=O)c1ccc(N2CCOCC2)c(NC(=O)c2ccc(NC(C)=O)cc2)c1	-0.3	-4.2	-0.3%	nt	nt
Cc1csc(NC(=O)C2CCCN(S(=O)(=O)c3cccnc3)C2)n1 (stereo not drawn)	2.8	-2.0	-4.5%	-51.6	1.4	Arbovirus anti repeat=4.9
CSCCC(NS(=O)(=O)c1ccc(Cl)cc1)C(=O)OCc1c(Cl)cccc1Cl (stereo not drawn)	-0.9	-11.7	-3.7%	-26.2	-4.6
O=C(Cc1ccc(Cl)cc1)NN1C(=O)c2ccccc2C1=O	0.3	-1.4	-5.4%	-17.8	1.3
CC(C)C(NS(=O)(=O)c1cccs1)C(=O)NCc1ccccc1 (stereo not drawn)	0.5	6.9	nt	nt	nt
CCOc1ccc(/C=C/C(=O)Oc2ccccc2)cc1	0.3	89.4	nt	nt	nt
COCCNC(=O)Cn1c(=O)n(Cc2ccco2)c(=O)c2ccccc21	1.7	-6.3	0.7%	-20.3	-1.0
Cc1ccc(NC(=O)C2CC(=O)NC(N3CCCCC3)=N2)cc1Cl (stereo not drawn)	-1.1	-7.1	-11.5%	-18.1	6.4
CCN(CC(=O)NCc1cccs1)C(=O)CCOc1ccccc1C	-1.8	-17.0	nt	nt	nt
O=C(OCC(=O)N1CCC(Cc2ccccc2)CC1)c1ccc[nH]c1=O	0.1	-1.5	-17.9%	-7.8	4.0
Clc1ccc(-n2nnnc2CN2CCOCC2)cc1Cl	-0.8	-7.4	-4.2%	-13.5	2.5
CCn1c(=O)c(C(=O)Nc2ccccn2)c(O)c2ccccc21	2.1	-7.7	-3.4%	nt	18.0
NC(=S)NN=C1c2cc(OCCN3CCOCC3)ccc2-c2ccc(OCCN3CCOCC3)cc21	-0.3	1.8	nt	nt	nt
CC(Sc1nc2ccccc2c(=O)n1C)C(=O)N(C)C1CCCCC1 (stereo not drawn)	0.4	-2.9	nt	nt	nt
CCOc1ccc(-c2nnc(NC(=O)c3ccc(OCC(C)C)c(OC)c3)o2)cc1	-0.4	98.4	10.1µM*	-32.1	-17.8
Cc1nc(SCc2ccc(Cl)cc2)ncc1C(=O)O	3.6	0.1	0.8%	nt	5.8
O=C(CNC(=O)c1cccc(F)c1)OCc1cc(=O)n2cc(Br)ccc2n1	-2.3	1.1	-3.9%	-23.4	-6.8
CC(NC(=O)C(=O)NN=C1CCCCCCC1)c1ccccc1 (stereo not drawn)	-2.9	-6.5	4.1%	-26.6	-3.9
CC(C)(C)OC(=O)NN1CC(=O)N2Cc3ccccc3C[C@@H]2C1=O	0.0	2.6	nt	nt	nt
COc1ccccc1N1CCc2c(C)nc3c(OC)cccc3c21	-5.2	9.3	10.3%	-31.1	-23.9
O=C(O)c1ccc(S(=O)(=O)NCC2CCCO2)cc1 (stereo not drawn)	0.0	1.3	nt	nt	nt
Cc1ccc(CC(=O)O/N=C(\N)c2cccc([N+](=O)[O-])c2)cc1	0.1	36.4	8.8%	-20.5	0.3
Nc1nc(N)c2[nH]c(-c3ccccc3)nc2n1	-1.7	-7.3	nt	nt	nt
CCCCCOc1ccc(C(O)C(CN2CCOCC2)c2ccccc2)cc1 (stereo not drawn)	3.1	-5.6	nt	nt	nt
CN(Cc1ccccc1)C(=O)CCc1ccccc1	3.5	11.6	9.0%	-20.7	-3.6
COc1ccc(NC(=O)Nc2c(C)n(-c3ccccc3)c(=O)n2C)cc1OC	-1.2	-9.5	2.8%	-5.7	9.3

Some of the compounds tested; count on the stated rates, not on these rows.
